Assay outcomes deposited in PubChem BioAssay by National Center for Advancing Translational Sciences (NCATS).
D2 agonist: agonists of human D2 dopamine receptor (beta-arrestin); P14416; DiscoveRx PathHunter D2 beta-arrestin, luminescence, 90 min; 100% = 57 uM dopamine signal; activation, % (test concentration not listed); 360,000 tested, 0.084% active; in the data active = activation above about 40%; inconclusive = about 15% to 40%; inactive = below about 15%; also: compound concentration not given in the record; the text of the record calls up to 30% inactive
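Agonist mode: compounds alone added to overnight-plated D2 PathHunter cells for 90 min at 37 C, with 57 uM final dopamine (EC100) defining full response. Beta-arrestin recruitment detected by chemiluminescent reagent, read after 1 h at ambient temperature.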
Sfp PPTase inh: Sfp phosphopantetheinyl transferase inhibition; Potency, µM, without a hit: max response, negative = inhibition, usual class: inhibitors; Biochemical Sfp PPTase activity, qHTS; 310,000 tested, 3.5% active; active = well fitted inhibition curve with a large enough effect; inconclusive = small, poorly fitted or top-dose-only effect, or another doubt; inactive = no such curve, though single readings can be large or run the other way;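 also: the enzyme is Sfp with the accession as filed and its product quenches rhodamine fluorescence; potency is read from the fitted curve at half-maximal effect; 0% = enzyme reaction without inhibitor and -100% = no enzyme wells; top concentration of the series not given in the record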
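Compounds were incubated with enzyme (final 15 nM) for 15 min at room temperature before substrate addition started the reaction. Fluorescence at 525 nm excitation, 598 nm emission was recorded immediately and after 30 minutes.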
D2 potentiator: positive allosteric modulators of human D2 dopamine receptor; 360,000 tested, 0.23% active; potentiation, % (test concentration not listed); DiscoveRx D2 beta-arrestin cells, luminescence, 90 min; 100% = 57 uM dopamine signal; active = potentiation of 50% or more; inconclusive = 30% to 50%; inactive = 30% or less;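 also: compound concentration not given in the record; tested on top of an EC20 dose of dopamine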
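PathHunter D2 cells, attached overnight at 37 deg C, received compound in DMSO plus dopamine at EC20 (50 nM final) for 90 min at 37 deg C. Beta-arrestin recruitment was read as luminescence after 1 h with detection reagent at ambient temperature.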
CtBP-E1A blk: CtBP/E1A binding inhibition | AlphaScreen GST-E1A/His-CtBP binding, 1536-well; active compounds read low; control for the full effect not named in the record | activity change, % (concentration not given with the values) | 340,000 tested, 0.49% active | AID 651724; in the data active means activity change below about -65%; inconclusive means about -30% to -65%; inactive means above about -30%; also: % is scaled to controls: 0 for no effect and ±100 for the full control effect
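Protein mix (5X: 125 nM each GST-E1A, His-CtBP) was incubated with pinned compound 2 h at 37 deg C in dark, in 50 mM Tris pH 8.0 buffer with 300 mM NaCl. Glutathione donor and nickel acceptor beads followed; AlphaScreen signal read after 1 h.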
Six1-Eya2 inh: blocks human Six1 binding to Eya2; activity change, % (concentration not given with the values); AlphaScreen GST-Six1/His-Eya2 binding, biochemical; active compounds read low; control for the full effect not named in the record; 360,000 tested, 0.56% active; Q15475+O00167; in the data active = activity change below about -65%; inconclusive = about -30% to -65%; inactive = above about -30%; also: % is scaled to controls: 0 for no effect and ±100 for the full control effect
Target sequence (O00167 whole entry, looked up): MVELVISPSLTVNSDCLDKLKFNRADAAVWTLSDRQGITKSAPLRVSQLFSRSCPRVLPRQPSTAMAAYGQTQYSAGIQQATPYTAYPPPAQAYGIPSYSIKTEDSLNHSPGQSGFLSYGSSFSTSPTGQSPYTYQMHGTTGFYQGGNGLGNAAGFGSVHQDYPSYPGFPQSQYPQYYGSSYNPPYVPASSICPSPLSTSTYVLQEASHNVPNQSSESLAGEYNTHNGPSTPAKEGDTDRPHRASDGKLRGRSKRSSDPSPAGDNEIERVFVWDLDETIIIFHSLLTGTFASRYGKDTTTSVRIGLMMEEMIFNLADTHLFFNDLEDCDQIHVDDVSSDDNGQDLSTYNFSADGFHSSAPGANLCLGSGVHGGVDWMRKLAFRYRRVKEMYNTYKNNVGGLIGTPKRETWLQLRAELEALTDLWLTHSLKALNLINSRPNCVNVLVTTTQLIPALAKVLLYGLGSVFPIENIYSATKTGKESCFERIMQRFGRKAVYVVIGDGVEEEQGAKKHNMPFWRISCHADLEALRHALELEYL
Target sequence (Q15475 whole entry, looked up): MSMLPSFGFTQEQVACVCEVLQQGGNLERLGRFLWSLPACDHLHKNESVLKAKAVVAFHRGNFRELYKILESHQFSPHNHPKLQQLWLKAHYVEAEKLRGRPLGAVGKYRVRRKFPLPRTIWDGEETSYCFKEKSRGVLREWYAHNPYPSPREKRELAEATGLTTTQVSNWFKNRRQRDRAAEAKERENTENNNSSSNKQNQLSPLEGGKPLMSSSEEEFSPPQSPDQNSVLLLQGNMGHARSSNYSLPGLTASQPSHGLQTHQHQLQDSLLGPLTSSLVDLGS
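AlphaScreen luminescence read after one hour at 37 °C in darkness. Pin-transferred compounds met GST-Six1 and His-Eya2 protein (5X stock 250 nM/500 nM) plus glutathione donor and Ni-chelate acceptor beads (5X, 50 ug/mL).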
TRPV1 PAM: human TRPV1 potentiation | TRPV1-expressing cells, Fluo-8 calcium influx, capsaicin EC20 potentiation; host cell line not named in the record; control for the full effect not named in the record | potentiation, % at 8.33 µM | Q8NER1 | AID 540277 | 320,000 tested, 0.02% active; active means potentiation above 80%; inconclusive means 30% to 80%; inactive means below 30%; also: 0% is about no effect
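TRPV1-expressing cells were cultured overnight at 35.5C and loaded with Fluo-8 calcium dye for 40 to 90 min at room temperature. After a 10 s baseline, compound was added and calcium influx was read kinetically for 3 min (ex 480/em 520 nm).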
PINK1 expr mod: PINK1 expression modulation | PINK1 immunofluorescence, high-content cytometry, 24 h | Potency, µM (top dose mostly 76.6 µM), for the others: at the top dose activation (PINK1 increase), hits mostly activators | 410,000 tested, 0.2% active | AID 624263; active = well fitted activation curve with a large enough effect; inconclusive = small, poorly fitted or top-dose-only effect; inactive = flat fitted curve, though single readings scatter; cell line not stated here;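 also: potency is read from the fitted curve at half-maximal effect; % of control where 0% means no effect; nearly all actives have a fitted effect of over 65% in size; a mitochondrial uncoupler was the plate control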
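Cells are seeded, rested 12 hours, then given compound at five concentrations or DMSO for 24 hours. After fixation, blocking and antibody staining, PINK1 amount and mitochondrial localization are scored; CCCP serves as control.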
* hit, by the source's call; u = inconclusive; x = not tested or not shown; & = joins results of further samples; [ ] = remark or other dose. Outcome played no part in choosing rows. Share with any hit: about 3.7%.

Labels used below – A = D2 agonist; B = Sfp PPTase inh; C = D2 potentiator; D = CtBP-E1A blk; E = Six1-Eya2 inh; F = TRPV1 PAM; G = PINK1 expr mod
CCOc1ccc(OCC)c(NC(=O)CSCC(=O)O)c1
  A: -0.7; B: 7%; C: 3; D: 1; E: 4; F: 11; G: -0.5%
CCCn1c(CNC(=O)c2cccs2)nc2ccccc21
  A: -0.2; B: 3%; C: -8; D: 3; E: -1; F: -6; G: 0.6%
CC(=O)OC[C@@H]1CN(Cc2ccccc2)C[C@H](n2cnc3c(NC4CC4)ncnc32)O1
  A: -3.8; B: x; C: -11; D: 2; E: 10; F: x; G: -0.3%
O=C(N/N=C/c1cccc(F)c1)c1c(O)c2ccccc2[nH]c1=O
  A: -2.2; B: 25%; C: -4; D: 6; E: -4; F: -5; G: 2.8µM*
O=C(CCCn1cc([N+](=O)[O-])cn1)N1CCCCC1
  A: 3.1; B: 20%; C: 3; D: 4; E: 4; F: -5; G: -0.3%
Cc1cccc(/C=C2/SC(=O)N(Cc3ccccc3)C2=O)n1
  A: -1.3; B: -5%; C: -7; D: 11; E: 6; F: -4; G: 6.7%[38.3 µM]
CCN(CC(=O)Nc1c(F)cccc1F)C(=O)c1cc(-c2cccs2)nn1-c1ccccc1
  A: 11; B: x; C: -9; D: -4; E: -10; F: u; G: -1.3%
O=C1c2ccccc2C(=O)N1c1ccc(S(=O)(=O)N2CCN(c3ccccc3)CC2)cc1
  A: 0.6; B: 12%; C: 19; D: 13; E: -3; F: 13; G: 3.2%
Cc1cccc2cc(C(c3nnnn3CC3CCCO3)N3CCCc4ccccc43)c(=O)[nH]c12 (stereo not drawn)
  A: -3.6; B: 15%; C: -14; D: -2; E: -22; F: 20; G: 21%[38.3 µM]
Cc1cccc2cc(COC(=O)c3cccnc3)c(=O)[nH]c12
  A: -1.3; B: 4%; C: -2; D: -3; E: -13; F: -5; G: 3.4%
CN(Cc1ccccc1)C(=O)COC(=O)CCN1C(=O)C2CC=CCC2C1=O (stereo not drawn)
  A: 2.7; B: x; C: 0; D: 1; E: 1; F: -4; G: -0.2%
O=C(CN1C(=O)c2ccccc2C1=O)Nc1ccccc1F
  A: -4.7; B: 15%; C: -3; D: 5; E: -18; F: 9; G: 1.1%
COc1ccc(CNC(=O)/C=C/c2cc3c(cc2Br)OCO3)cc1
  A: -0.9; B: 5%; C: -13; D: -1; E: -4; F: -8; G: 12%
COCCN(C(=O)CCC(=O)Nc1cccnc1)C(C(=O)NC1CCCCC1)c1ccccc1 (stereo not drawn)
  A: -2.0; B: 12%; C: 4; D: -2; E: 10; F: 10; G: -2.0%
Cc1occc1-c1nnc(SCC(=O)Nc2ccc(F)cc2)n1C
  A: -4.7; B: 5%; C: -8; D: 8; E: 3; F: 2; G: 10%
COc1cc(Br)ccc1NC(=O)c1ccccc1-c1ccccc1C(=O)O
  A: 1.8; B: x; C: 1; D: 1; E: 5; F: x; G: 3.1%
COc1ccc(CCN(Cc2cccs2)S(=O)(=O)c2ccc(S(=O)(=O)N3CCCCCC3)cc2)cc1OC
  A: -0.4; B: 12%; C: -4; D: 0; E: 7; F: -8; G: 6.4%
COc1ccc(OCC(=O)Nc2ccccc2N2CCN(C)CC2)cc1
  A: -0.8; B: -2%; C: -17; D: -8; E: -12; F: 8; G: -0.8%
O=C(Nc1ccc(-c2cccc(F)c2)cc1)C1CCCN(Cc2ccccn2)C1 (stereo not drawn)
  A: 3.1; B: 7%; C: -5; D: -6; E: -10; F: 12; G: 1.9%
COC(=O)c1ccc(NC(=O)C2CCCN2S(=O)(=O)c2ccc(F)cc2)cc1 (stereo not drawn)
  A: -2.5; B: 19%; C: -43; D: 5; E: -1; F: -6; G: 1.3%
CN(C)C(=O)CCc1ccc2c3c([nH]c2c1)[C@]1(C)[C@@H](C(=O)N2CCCCC2)C[C@H](CC(=O)NC(C)(C)C)C(=O)N1CC3
  A: -1.0; B: x; C: -4; D: -9; E: 2; F: x; G: -1.7%
Cc1nn(CCC(=O)NCc2ccc(OC(C)C)cc2)c(=O)c2nn(-c3ccccc3)c(C)c12
  A: 5.9; B: 5%; C: -4; D: 0; E: 3; F: 2; G: 0.9%
Fc1ccc(C2CCCN2Cc2nc(CC3CC3)no2)cc1 (stereo not drawn)
  A: -0.6; B: 21%; C: -3; D: 5; E: 13; F: -4; G: 0.5%
O=C(NC(=S)Nc1nc2c(ccc3ccccc32)s1)c1cccs1
  A: -1.0; B: -11%; C: -23; D: -6; E: -5; F: 10; G: 3.9%
CCCSc1nnc(Nc2ccccc2C)s1
  A: -2.1; B: -2%; C: -12; D: 7; E: 4; F: -31; G: -0.8%

Next part, overlapping the part above by 4 compounds.
Labels used below – A = D2 agonist; B = Sfp PPTase inh; C = D2 potentiator; D = CtBP-E1A blk; E = Six1-Eya2 inh; F = TRPV1 PAM; G = PINK1 expr mod
Cc1nn(CCC(=O)NCc2ccc(OC(C)C)cc2)c(=O)c2nn(-c3ccccc3)c(C)c12
  A: 5.9; B: 5%; C: -4; D: 0; E: 3; F: 2; G: 0.9%
Fc1ccc(C2CCCN2Cc2nc(CC3CC3)no2)cc1 (stereo not drawn)
  A: -0.6; B: 21%; C: -3; D: 5; E: 13; F: -4; G: 0.5%
O=C(NC(=S)Nc1nc2c(ccc3ccccc32)s1)c1cccs1
  A: -1.0; B: -11%; C: -23; D: -6; E: -5; F: 10; G: 3.9%
CCCSc1nnc(Nc2ccccc2C)s1
  A: -2.1; B: -2%; C: -12; D: 7; E: 4; F: -31; G: -0.8%
COc1cc(NC(=S)NCc2cccnc2)cc(OC)c1OC
  A: 0.3; B: u; C: 1; D: 6; E: 2; F: -3; G: -0.6%
Cc1c(C(=O)Nc2ccccc2F)cnn1-c1ccccc1
  A: -5.4; B: 1%; C: -5; D: -9; E: 1; F: -11; G: 1.2%
O=C(C1CC(=O)N(c2ccccc2)C1)N1CCN(c2ccc(F)cc2)CC1 (stereo not drawn)
  A: -5.3; B: 6%; C: -15; D: 12; E: -1; F: 8; G: -2.2%
Cc1cc(C(=O)NCCC(C)C)c2ccccc2n1
  A: -1.3; B: 4%; C: -6; D: 6; E: 16; F: -4; G: 2.2%
Cn1cnc2ncnc(Oc3ccc(Br)cc3)c21
  A: 0.7; B: x; C: -22; D: 4; E: -6; F: x; G: -1.1%
COC(=O)Nc1nc(Sc2ncc(C(F)(F)F)cc2Cl)n[nH]1
  A: -1.0; B: 4%; C: -5; D: 6; E: -5; F: 4; G: 1.2%
COc1ccc(/C=N/Nc2cc(N3CCOCC3)ncn2)c(OC)c1
  A: -4.2; B: -6%; C: -12; D: u; E: -1; F: 14; G: 1.4%
CO/N=C(\CCC(=O)O)c1cccs1
  A: -3.3; B: 21%; C: -7; D: -5; E: 0; F: 2; G: 1.3%
O=C(c1cc2ccccc2oc1=O)N(Cc1ccccc1)Cc1ccc2c(c1)OCO2
  A: -2.4; B: 18%; C: -8; D: -7; E: -6; F: 2; G: -5.8%
COC(=O)CSc1nc2nc(-c3cccs3)cc(C(F)(F)F)c2c(=O)[nH]1
  A: -3.2; B: 12%; C: -3; D: 0; E: -5; F: -1; G: -2.5%
O=C(CSc1c(Cl)cccc1Cl)NC1CCCc2ccccc21 (stereo not drawn)
  A: 6.9; B: -14%; C: -3; D: -1; E: -2; F: -4; G: 6.2%
Nc1nnc(CC(=O)N/N=C/c2cccc(OCCOc3ccccc3)c2)s1
  A: -1.0; B: 19%; C: 21; D: 7; E: -6; F: 1; G: 7.5%
Cc1cc(C)nc(N(C#N)CC(=O)c2ccccc2)n1
  A: -3.4; B: 13%; C: -21; D: 24; E: -2; F: -13; G: 2.3%[38.3 µM]
CN(C)CCCNc1nc2cc(-c3cccc(Cl)c3)sc2c(=O)n1C
  A: -3.4; B: x; C: -12; D: 1; E: -3; F: x; G: -1.4%
O=C(CCNc1n[nH]c(=O)[nH]c1=O)N/N=C/c1ccccc1Br
  A: -6.2; B: 14%; C: -10; D: 11; E: 1; F: -1; G: -0.6%
CC(=O)N1CCN(C(=S)NCCc2ccccc2)CC1
  A: 1.8; B: 5%; C: -5; D: x; E: -3; F: 22; G: 1.7%
COCCNc1nc(NCc2ccc(NC(C)=O)cc2)c2sc(-c3ccccc3)cc2n1
  A: u; B: x; C: 1; D: -15; E: -12; F: x; G: -1.2%
O=C(COC(=O)CCS(=O)(=O)c1ccc(Cl)cc1)NCCc1ccc(Cl)cc1Cl
  A: -0.7; B: -2%; C: -1; D: -11; E: 4; F: -3; G: 0.2%
CC(=O)Nc1cc(C(=O)N2CCN(C)CC2)ccc1S(=O)(=O)c1ccc(C)cc1
  A: -2.1; B: 1%; C: 7; D: -5; E: -2; F: 18; G: -3.7%[38.3 µM]
O=C(Nc1ccc2c(c1)OCO2)C1CCCCN1S(=O)(=O)c1ccc(F)cc1 (stereo not drawn)
  A: 0.7; B: 4%; C: -7; D: -14; E: -5; F: 15; G: -0.7%
CCC(=O)N1c2ccc(S(=O)(=O)CCC(=O)Nc3ccc(OC)cc3OC)cc2CC1C (stereo not drawn)
  A: 3.8; B: -12%; C: -2; D: x; E: 1; F: -14; G: -0.2%&0.4%
Cc1ccc(C(C)C)c(OCC(O)CN(C)Cc2ccccc2)c1 (stereo not drawn)
  A: 3.5; B: 15%; C: -24; D: 6; E: 6; F: 5; G: -3.5%

Record cards, as listed above. Screens in order: D2 agonist | Sfp PPTase inh | D2 potentiator | CtBP-E1A blk | Six1-Eya2 inh | TRPV1 PAM | PINK1 expr mod
CN(C)CCCNc1nc2cc(-c3cccc(Cl)c3)sc2c(=O)n1C is listed as -3.4 | x | -12 | 1 | -3 | x | -1.4%
COc1ccc(/C=N/Nc2cc(N3CCOCC3)ncn2)c(OC)c1 is listed as -4.2 | -6% | -12 | u | -1 | 14 | 1.4%
COC(=O)CSc1nc2nc(-c3cccs3)cc(C(F)(F)F)c2c(=O)[nH]1 is listed as -3.2 | 12% | -3 | 0 | -5 | -1 | -2.5%
Cc1c(C(=O)Nc2ccccc2F)cnn1-c1ccccc1 is listed as -5.4 | 1% | -5 | -9 | 1 | -11 | 1.2%
Cc1cc(C)nc(N(C#N)CC(=O)c2ccccc2)n1 is listed as -3.4 | 13% | -21 | 24 | -2 | -13 | 2.3%[38.3 µM]
